Calb FLC = C. albicans growth modulation with fluconazole; 300,000 compounds, 0.57% hits; growth inhibition, % (no concentration beside the values); C. albicans CaCi-2 (fluconazole-resistant clinical isolate) + fluconazole, Alamar Blue growth, 48 h; AID 1979;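 active = most replicates above 75%; inconclusive = exactly half above 75%; inactive = most below 75%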;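 note: all wells also contain fluconazole at 8 µg/ml as a sub-toxic cotreatment; 0% = median of DMSO wells and 100% = median of geldanamycin control wells; wells of about 8 µL received 7.5 nL stock; the first replicate is given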
RanGTP-Impb inh = inhibitors of RanGTP-importin-beta interaction, primary screen, biochemical, FRET, CFP-Ran, YFP-importin-beta, homogeneous. 300,000 compounds, 1.1% hits. cell-free CFP-Ran/YFP-importin-beta FRET ratio. inhibition, % (concentration not given with the values);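 active = most replicates above 15%; inconclusive = exactly half above 15%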;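 note: 0% = DMSO wells and 100% = Ran loaded with GDP instead of GTP; wells of about 40 µL received 100 nL stock; the first replicate is given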
LANA-H2A inh = blocks KSHV LANA binding to histone H2A/H2B. Q9QR71. cell-free LANA-H2A/H2B peptide, fluorescence polarization. inhibition, % (test concentration not listed). 320,000 compounds, 0.6% hits. AID 2629; in the data active = inhibition mostly above about 10%, no sharp cut-off; inactive = mostly below about 6.7%;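 note: stock transfer was 7.5 nL into about 10 µL; 0% = median of vehicle wells and 100% = median of positive control wells; one replicate is shown; the record names a cut of 25% in any replicate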
Target sequence (Q9QR71 whole entry, looked up): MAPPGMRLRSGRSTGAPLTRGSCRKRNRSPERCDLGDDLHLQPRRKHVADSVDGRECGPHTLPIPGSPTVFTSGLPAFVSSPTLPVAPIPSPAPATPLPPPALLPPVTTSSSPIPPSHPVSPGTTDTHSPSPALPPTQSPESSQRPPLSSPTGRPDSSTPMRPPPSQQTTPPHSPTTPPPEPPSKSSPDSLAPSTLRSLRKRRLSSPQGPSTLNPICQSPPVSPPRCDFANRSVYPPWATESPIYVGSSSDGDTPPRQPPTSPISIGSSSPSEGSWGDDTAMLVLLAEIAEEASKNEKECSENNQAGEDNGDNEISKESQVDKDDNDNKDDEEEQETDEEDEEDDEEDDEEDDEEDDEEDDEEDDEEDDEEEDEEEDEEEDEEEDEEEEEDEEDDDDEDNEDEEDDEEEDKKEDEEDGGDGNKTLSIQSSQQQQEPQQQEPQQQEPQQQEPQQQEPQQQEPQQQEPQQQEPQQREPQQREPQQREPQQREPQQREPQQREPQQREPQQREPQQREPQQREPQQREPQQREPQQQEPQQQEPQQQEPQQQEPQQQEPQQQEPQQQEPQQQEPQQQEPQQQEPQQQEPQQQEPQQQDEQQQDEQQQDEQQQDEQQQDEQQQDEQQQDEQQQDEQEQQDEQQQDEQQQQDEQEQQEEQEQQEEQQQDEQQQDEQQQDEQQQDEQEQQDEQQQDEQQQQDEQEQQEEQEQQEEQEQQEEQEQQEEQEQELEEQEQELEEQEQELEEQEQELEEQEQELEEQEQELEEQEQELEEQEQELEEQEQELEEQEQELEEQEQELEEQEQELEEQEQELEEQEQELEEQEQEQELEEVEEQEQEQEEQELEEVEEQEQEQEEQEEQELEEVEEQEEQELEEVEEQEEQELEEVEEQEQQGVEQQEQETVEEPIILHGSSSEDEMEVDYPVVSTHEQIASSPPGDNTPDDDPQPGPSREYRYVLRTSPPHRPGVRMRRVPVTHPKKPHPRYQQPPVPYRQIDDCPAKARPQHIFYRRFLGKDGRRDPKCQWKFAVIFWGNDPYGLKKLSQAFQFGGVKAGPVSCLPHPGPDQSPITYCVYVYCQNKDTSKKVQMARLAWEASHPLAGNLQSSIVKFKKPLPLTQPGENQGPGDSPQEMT
Vif A3G = HIV-1 Vif–A3G interaction blockers – biochemical, TR-FRET, GST-Vif 1-94, biotin-A3G peptide, dose response retest, primary screen (AID 1117319); TR-FRET GST-Vif / biotin-A3G peptide binding; higher % means a stronger effect; test concentration not given here; strong numbers were not always called active; inhibition, %; hits with a dose series show IC50 in µM; 260,000 compounds, 0.57% hits;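 active = above the screen mean plus three standard deviations and confirmed in dose response; inconclusive = results disagree or hit not tested in dose response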;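 note: Vif residues 1-94 fused to GST binding biotinylated APOBEC3G peptide 110-148; 0% = full assay without inhibitor and 100% = GST in place of GST-Vif; retest series ran down from 100 µM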
AF4-AF9 inh = MLL-AF4/AF9 protein interaction inhibition; AlphaScreen, biotin-AF4 peptide binding to FLAG-AF9; inhibition, % at 10 µM; 350,000 compounds, 0.47% hits;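 active = every replicate reaching a set inhibition limit, whatever the replicate mean, cut at about 25% in these data; inconclusive = mean inhibition reaches that limit but some replicates miss it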;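 note: 0% = plate neutral control median and 100% = total signal loss; the record names both 10 and 1 µM as test concentration; the first replicate is given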
Beta apoptosis = beta cell apoptosis inhibition; 300,000 compounds, 0.8% hits; AID 435005; INS-1E cytokine-induced death, ATP luminescence, 48 h; percent of positive-control rescue, neutral wells zero; protection from apoptosis, % (test concentration not listed);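 active = all replicates at 75% or more, or half of them and the mean; inconclusive = half reach 75% but not the mean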;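 note: 0% = cytokine-treated negative control wells and 100% = positive control rescue; higher means more ATP so stronger rescue from cytokine killing; wells of about 40 µL received 100 nL stock; the first replicate is given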
T cruzi inh = blocks replication of Trypanosoma cruzi | T. cruzi beta-gal in NIH3T3, luminescence, 90 h | inhibition, % (test concentration not listed) | 300,000 compounds, 1.4% hits | AID 1885;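 active = mean inhibition across valid replicates above about 55%, limit read from the data; inconclusive = mean below that limit but half or more replicates reach it; inactive = mean below it, under half of replicates reach it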;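 note: signal also drops with host cell toxicity which is not excluded here; 0% = plate median of DMSO wells and 100% = zero luminescence signal; higher percent means less beta-gal luminescence so fewer parasites; stock transfer was 50 nL into about 50 µL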
Bfl-1 A1 inh = inhibitors of the anti-apoptotic protein A1, read as caspase activation | MEF A1-2A-BIM cells, Caspase-Glo 3/7 luminescence, 3 h; percent of clofoctol response, vehicle zero | caspase activation, % (no concentration beside the values) | 330,000 compounds, 0.066% hits | AID 2462;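 active = over half of replicate activation scores above 10%, or exactly half above 10 with the replicate mean above 10; inconclusive = replicate mean below 10 yet half the replicates above 10; inactive = over half of replicates below 10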;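 note: wells of about 30 µL received 50 nL stock; many hits fall short of the cut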
* = called active by the depositor; u = inconclusive; x = no result given; & = joins results of further samples; ! = a repeat was not active.

entry	structure	Calb FLC	RanGTP-Impb inh	LANA-H2A inh	Vif A3G	AF4-AF9 inh	Beta apoptosis	T cruzi inh	Bfl-1 A1 inh
1	O=C1CC(c2ccc(F)cc2)Sc2nc(-c3ccccc3)c(-c3ccccc3)n21 (stereo not drawn)	29	4.6	-2.4	-2%	x	-17	5	1.5
2	CCN(CC(=O)Nc1ccc(OC)cc1)C(=O)CCc1nc2ccccc2c(=O)[nH]1	x	0.1	-3.2	-3%	-0.2	2	-6	0.5
3	CC(C)NC(=O)C12CC3CC(C1)CC(n1cnc(Cl)n1)(C3)C2	0	4.2	-11	18%	x	-4	3	0.8
4	CCN(CC)c1ccc(S(=O)(=O)N2CCCCC2)cc1NC(=O)C1CCC1	-11	x	71*	x	8.8	-9	7	0.1
5	Cc1cccc(CNC(=O)c2ccccc2N)c1	9	3.6	-2.8	-5%	x	0	10	0.2
6	COc1ccc(NC(=O)CCN2CCN(c3ccc(F)cc3)CC2)cc1	-5	3.2	1.2	-7%	0.1	x	5	1.2
7	CCCCc1cn(C[C@H]2CC[C@@H]([C@@H]3CC[C@H](Cn4cc(CCCC)nn4)O3)O2)nn1	1	0.6	5.5	x	-5.0	4	4	-0.3
8	CCCC(NC(=O)CCc1c(C)c2cc3c4c(oc3c(C)c2oc1=O)CCCC4)C(=O)O (stereo not drawn)	3	u	0.5	1%	-0.1	-5	3	0.8
9	Cn1c(SCC(=O)N2CCN(c3ccccc3)CC2)nnc1-c1ccncc1	-7	-0.1	-0.6	17%	x	-3	-5	-0.3
10	Cc1ccc(-c2nc(CCN3C(=O)c4ccccc4C3=O)cs2)cc1	10	0.9	0.7	u	x	1	3	-0.1
11	COc1ccccc1N1CCN(S(=O)(=O)c2c(C)sc3ncn(CC(=O)NCCN(C)C)c(=O)c23)CC1	-30	1.5	1.4	x	0.3	-3	3	0.8
12	Cc1ccccc1-c1nc2sc3c(c2c(=O)o1)CCC3	-4	2.6	6.5	x	x	-9	-1	-4.9
13	O=C(COC(=O)Cc1cccc(C(F)(F)F)c1)NCC1CCCO1 (stereo not drawn)	24	u	3.8	77%	-3.1	-4	-3	0.7
14	CCSC(=O)NC1CCCCC1	-10	0.2	-4.7	4%	0.5	-5	x	0.1
15	CCc1ccc(CNC(=O)c2ccc3nc(C4CCCCC4)oc3c2)nc1	-25	-1.2	-1.6	0%	-1.2	x	10	-0.9
16	CC(=O)Nc1ccc(S(=O)(=O)N2CCC(C(=O)c3ccc(Cl)cc3)CC2)cc1	2	0.3	4.0	x	3.8	9	3	0.2
17	CCOc1ccc(NC(=O)Cn2nc(-c3ccccc3Cl)n(CC)c2=S)cc1	0	-1.9	2.2	-4%	x	5	-3	0.3
18	CCN(CC(=O)Nc1ccc(NC(C)=O)cc1)C(=O)/C=C/c1ccc(C)o1	x	x	-11	-3%	-2.1	4	x	1.9
19	CN(C)CCNc1oc(-c2ccccc2Cl)nc1S(=O)(=O)c1ccccc1	x	x	-3.1	3%	12	2	x	2.2
20	O=C(Nc1cccc(C(=O)N2CCOCC2)c1)c1cncc(Br)c1	-5	-0.6	-2.1	-3%	x	-2	-22	1.6
21	COc1ccc(CCN(C)C(=O)C2CCCN(Cc3ccc(OC)c(OC)c3)C2)cc1OC (stereo not drawn)	9&-12	-1.8&-0.4	-6.8&2.9	-1%&-2%	-0.9	-8&-6	66*!	u
22	C[C@H](NC(=O)c1nc[nH]c1C(=O)N1CCN(C(=O)OC(C)(C)C)CC1)C(=O)OC(C)(C)C	x	x	-2.2	x	-0.4	0	x	-0.4
23	Clc1ccc2nc(N3CCCCC3)[nH]c2c1	21	3.2	5.4	5%	x	-2	10	-12
24	COC(=O)[C@]1(CC(C)C)N[C@H](c2ccc(-c3ccc(F)cc3)cc2)[C@@H]2C(=O)N(C)C(=O)[C@@H]21	-14	-1.6	-1.3	x	2.9	4	18	-0.3
25	CC(C)(C)c1ccc(-c2n[nH]c(=S)n2CC2CCCO2)cc1 (stereo not drawn)	13	8.4	1.1	24%	-1.7	2	-14	2.6

3 entries drawn at random from the list so far, as already listed:
entry	structure	Calb FLC	RanGTP-Impb inh	LANA-H2A inh	Vif A3G	AF4-AF9 inh	Beta apoptosis	T cruzi inh	Bfl-1 A1 inh
12	Cc1ccccc1-c1nc2sc3c(c2c(=O)o1)CCC3	-4	2.6	6.5	x	x	-9	-1	-4.9
3	CC(C)NC(=O)C12CC3CC(C1)CC(n1cnc(Cl)n1)(C3)C2	0	4.2	-11	18%	x	-4	3	0.8
8	CCCC(NC(=O)CCc1c(C)c2cc3c4c(oc3c(C)c2oc1=O)CCCC4)C(=O)O (stereo not drawn)	3	u	0.5	1%	-0.1	-5	3	0.8

Carrying on.
entry	structure	Calb FLC	RanGTP-Impb inh	LANA-H2A inh	Vif A3G	AF4-AF9 inh	Beta apoptosis	T cruzi inh	Bfl-1 A1 inh
26	CCOCCOC(NC(=O)c1ccccc1)(C(F)(F)F)C(F)(F)F	-2	4.0	2.5	-11%	0.0	1	-4	0.6
27	Cc1cccc(OCC(=O)Nc2nccs2)c1C	-2	0.8	1.2	-3%	0.6	-1	-4	-11
28	O=S(=O)(c1ccc(OCC(O)CN2CCCC2)cc1)N1CCOCC1 (stereo not drawn)	-3	2.2	-3.2	8%	x	-9	-1	-0.1
29	O=C(OC(C(=O)NCc1ccc2c(c1)OCO2)c1ccc(Cl)cc1)c1ccco1 (stereo not drawn)	-4	2.3	1.7	-8%	x	-14	-3	-0.7
30	Cc1nc(C(N)=O)nc2ccccc12	0	-1.0	2.2	1%	-1.8	x	-12	-0.8
31	O=C(OCc1ccco1)c1ccc(S(=O)(=O)N2CCCCC2)cc1	-8	1.0	4.9	22%	x	-2	-6	0.5
32	Cc1c(C(=O)N2CCCCC2)c(S(=O)(=O)NCc2ccc(N(C)C)cc2)c(C)n1C	-5	3.0	-0.6	-4%	3.6	x	8	0.4
33	CN(C)c1ccc(N=Nc2ccccc2C(=O)OCC(=O)NC2CCCC2)cc1	34	-1.0	-2.3	x	x	-1	24	-0.3
34	O=C(CCC(=O)OCc1cccc(C(=O)Oc2ccccc2)c1)Nc1cccc2ccccc12	-3	0.7	-1.6	2%&10%	x	4	-20	-1.2
35	CNC(=O)NC(=O)C(OC(=O)CCNS(=O)(=O)c1ccccc1)c1ccccc1 (stereo not drawn)	18	u	0.3	x	0.5	-2	-6	0.6
36	CCN(C(=O)COC(=O)C1CC1)c1c(N)n(Cc2ccccc2)c(=O)[nH]c1=O	x	x	2.8	-1%	-1.2	1	x	0.1
37	O=S(=O)(c1ccccc1)N1CCN(C2CCN(Cc3ccccc3)CC2)CC1	-7	1.1	6.4	30%	x	5	13	-0.3
38	CCN=C1SC(CC(N)=O)C(=O)N1CC (stereo not drawn)	-1	-0.2	-7.8	10%	-0.6	x	-13	-0.4
39	CN(C)c1ccc(-c2n[nH]c(=S)n2-c2ccccc2)cc1	8	4.0	4.7	-3%	-4.2	-2	-3	-0.8
40	C=CCOc1ccccc1CNn1nnnc1N	-4	1.2	-3.5	27%	x	-5	6	0.4
41	Cc1ccc(C)n1-n1c(C)nc2sc(-c3ccccc3)cc2c1=O	-8	-0.4	-6.8	8%	x	7	11	-0.7
42	NC(=O)CSc1n[nH]c(-c2ccco2)n1	-3	-0.1	-3.2	-8%	-6.3	1	-7	-0.9
43	O=C(CC1C(=O)NC2CCCCC2N1C(=O)c1ccc(F)cc1)Nc1ccccc1 (stereo not drawn)	-12	-3.0	-0.5	4%	x	-10	-13	0.5
44	Cc1ccc(OCCn2c(=O)oc3ccc(C)cc32)cc1	-19	5.0	-3.3	31%	-2.8	0	0	0.5
45	CCCCCN(C(=O)NC(=O)Nc1ccccc1C)S(=O)(=O)c1ccccc1	-5	5.0	-1.2	x	-60	x	4	0.2
46	COc1cccc(C(=O)OC(C)C(=O)NCC2CCCCC2)c1 (stereo not drawn)	x	x	-3.1	-12%	0.3	-5	x	-1.0
47	CCOC(=O)c1sc(NC(=O)c2ccc(C)s2)cc1C	16	2.3	6.8	3%	x	16	-5	-5.4
48	COc1ccc(CC(NC(C)=O)C(=O)NC2CCN(C(=O)Nc3ccccc3C)CC2)cc1OC (stereo not drawn)	-2	-1.8	5.5	-5%	-2.5	-5	-1	-0.5
49	O=C(CNS(=O)(=O)c1ccccc1F)OCC(=O)c1c[nH]c2ccccc12	x	x	1.3	x	-3.5	-10	x	-1.3
50	O=[N+]([O-])c1ccc(S(=O)(=O)NCC2CCCO2)cc1 (stereo not drawn)	-3	1.8	5.8	x	1.0	-3	0	1.1

More records:
entry	structure	Calb FLC	RanGTP-Impb inh	LANA-H2A inh	Vif A3G	AF4-AF9 inh	Beta apoptosis	T cruzi inh	Bfl-1 A1 inh
51	O=C(CCNC(=O)c1ccc(Br)cc1)Nc1ccc(S(=O)(=O)N2CCOCC2)cc1	x	x	-1.1	x	0.2	0	x	0.0
52	Nc1nc(NCCCN2CCOCC2)nc(Nc2ccc(F)cc2)c1[N+](=O)[O-]	29	0.6	-3.2	x	x	-9	8	-0.4
53	O=C(O)c1cccc(NC(=S)N/N=C/c2ccccc2OCc2cccc(Br)c2)c1	-14	5.7	x	13%	1.0	x	-3	x
54	Oc1c(N=NC(=S)Nc2ccccc2F)c2ccccc2n1Cc1ccccc1Cl	13	x	3.0	x	7.7	38	68*	1.8
55	CCOC(=O)c1cc(CC)sc1NC(=O)c1cc([N+](=O)[O-])ccc1N1CCOCC1	-1	-3.9	-0.2	-4%	x	6	53	0.3
56	C/C(Cl)=C/Cc1c(C)[nH]c2ccc(C)cc2c1=O	u	-4.2	-3.3	-1%	x	-5	71*	-0.6
57	Cc1cc(S(=O)(=O)NCc2ccccc2)ccc1OCC(=O)NCc1cccnc1	-3	0.7	-5.4	x	-2.2	-3	4	0.6
58	COc1ccc(C(=O)[C@H]2[C@H]3C(=O)N(c4ccc(OC(C)=O)cc4)C(=O)[C@H]3C3C=CC=NN32)cc1 (stereo partly drawn)	3	-3.8	-0.2	1%	-2.3	-3	-15	0.1
